# HCMV NEC inh: inhibitors of HCMV UL50-UL53 nuclear egress complex interaction. HTRF UL50-UL53 interaction, normalized percent inhibition. inhibition, % (concentration not given with the values). actives 0.15% (n = 190,000);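 active means both replicates at 50% or more, plus weaker picks with an unusually low signal ratio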;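 further: stock transfer was 100 nL into about 20 µL; 0% = negative control wells and 100% = wells with untagged competitor protein; inactives centre near -12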
# GIV Gai3 FP: inhibitors of GIV GBA-motif binding to rat Galpha-i3. P08753. Galpha-i3/FITC-GIV peptide fluorescence polarization, 90 min; hits give low values; scaled: aluminum fluoride 0%, vehicle 100%. percent of control (FP), % (concentration not given with the values). actives 0.42% (n = 210,000). AID 1224905;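 active means replicate mean at 85% of control or lower, very high polarization wells dropped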;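 further: wells of about 15 µL received 100 nL stock; the first replicate is given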
# Target sequence (P08753 whole entry, looked up): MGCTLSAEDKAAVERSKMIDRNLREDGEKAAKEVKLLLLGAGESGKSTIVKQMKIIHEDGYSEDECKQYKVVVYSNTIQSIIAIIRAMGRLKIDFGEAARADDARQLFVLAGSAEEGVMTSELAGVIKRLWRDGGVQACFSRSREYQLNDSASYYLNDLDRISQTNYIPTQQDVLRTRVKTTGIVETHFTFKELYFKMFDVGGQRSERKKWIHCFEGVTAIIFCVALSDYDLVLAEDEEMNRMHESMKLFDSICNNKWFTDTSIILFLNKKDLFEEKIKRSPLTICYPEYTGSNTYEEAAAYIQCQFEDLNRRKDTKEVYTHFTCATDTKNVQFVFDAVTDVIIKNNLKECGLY
# Sa growth inh: inhibitors of Staphylococcus aureus growth at 42 °C. S. aureus RN4220 growth, OD600, 20 h; hits give low values. actives 0.53% (n = 170,000). relative growth, % (test concentration not listed);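 active means growth at 42 °C up to 50% and 20 or more points under that at 30 °C, or under 10% at both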;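 further: 300 nL library stock went into each well; scaled to the means of positive and negative controls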
# Sa growth inh second temp: also measured in Sa growth inh; calls as there; relative growth, %; measured here: growth at 30 °C;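 optical density after 20 h as mean of two plates; 100% = untreated growth and lower means inhibition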
# An asterisk follows results filed as active; x = no result given; & = joins results of further samples.
canonical_smiles,HCMV NEC inh,GIV Gai3 FP,Sa growth inh,Sa growth inh second temp
COc1cccc(-c2ccc3c(N)c(C(=O)Nc4ccc(C)c(F)c4)sc3n2)c1,-1,116,103,105
CC(C)c1ccc(NC(=O)Cn2cc(S(=O)(=O)Cc3cccc(Cl)c3)c3ccccc32)cc1,x,100,98,92
CCN(CC)C(=O)c1ccc2oc(CN3CCN(S(=O)(=O)c4ccc(C)c(Cl)c4)CC3)nc2c1,-1,109,x,x
COc1ccc(-n2nc(C(=O)N3CCCCC3C)c3c4ccccc4n(C)c3c2=O)cc1 (stereo unspecified),-3,95,110,93
CS(=O)(=O)N1CCCC(C(=O)N2CCc3ccccc3C2)C1 (stereo unspecified),-26,99,90,79
O=C(CCCn1c(=O)[nH]c2ccc(Br)cc2c1=O)N1CCN(c2cccc(Cl)c2)CC1,11,111,94,71
O=C(NCc1ccco1)C1CC(c2ccccc2O)=NO1 (stereo unspecified),-8,104,101,79
CCC(=O)N1CCc2cc(S(=O)(=O)N(C)c3cccc(C)c3)ccc21,2,103,112,95
CCN(CC)c1ccc(-n2cccc2)cc1,-38,x,105,97
CCOC(=O)C1=NN(c2ccccc2)C2c3cc(OC)c(OC)cc3CCN12 (stereo unspecified),-42,103,93,80
CC1CCN(S(=O)(=O)c2ccc3c(c2)CCN3C(=O)Nc2ccc(Br)cc2)CC1,-22,102,119,90
O=C1NC2(CCc3ccccc32)C(=O)N1Cc1ncc(-c2ccccc2)o1 (stereo unspecified),5,x,146,95
Cc1cccc(CN2C(=O)/C(=C\c3ccc(C(=O)N4CCN(C(=O)c5ccco5)CC4)cc3)Oc3ccccc32)c1,-7,101,91,75
Cc1ccc2[nH]c(=O)c(-c3noc(CCCC(=O)Nc4nnc(C)s4)n3)cc2c1,13,99,x,x
COC(=O)c1sccc1OCc1nnc(-c2ccc(C)cc2)o1,-1,97,88,94
O=C(CC12CC3CC(CC(C3)C1)C2)NCc1ccc2c(c1)OCO2,7,102,103,96
CCN(CC)S(=O)(=O)c1ccc(NC(=O)c2c(C)oc3ncnc(N4CCCCC4)c23)cc1,x,108,88,73
CC(=O)Nc1ccc(C)c(NC(=S)Nc2ccc(Cl)c(Cl)c2)c1,-13,105,94,83
CC1Cc2nn(-c3ccccc3)c(-c3cccnc3)c2C(=O)C1C (stereo unspecified),-10,x,110,91
N/C(=C\C(=O)c1c(O)c(F)c(F)c(F)c1F)C(=O)O,-43,x,92,89
COc1ccc(C(=O)Nc2ccc3oc(Cc4ccc(Cl)cc4)nc3c2)cc1OC,-12,99,x,x
OC(c1ccccc1)c1nc2ccccc2[nH]1 (stereo unspecified),-16,x,107,80
COc1cccc(NC(=O)Cn2c(=O)n(-c3ccc(Cl)cc3)c(=O)c3oc4ccccc4c32)c1,x,104,103,81
CCc1ccc(OCc2ccc(C(=O)O)cc2)cc1,-28,x,113,91
CCOC(=O)c1c(C)n(C)c2ccc(OCC(O)Cn3c(Cc4ccccc4)nc4ccccc43)cc12 (stereo unspecified),-21,98,x,x
O=C(NC1CCCCC1)c1c(-c2ccc(F)cc2)nc2n1CCS2(=O)=O,4,104,x,x
CCc1ccc(NC(=O)CCCn2nc(CC)n3c(cc4occc43)c2=O)cc1,5,103,107,88
Cc1cc(C(=O)N2CCN(Cc3ccc4c(c3)OCO4)CC2)nn1C,-11,105,96,89
Cc1nn(-c2ccccc2)c(C)c1NC(=O)Cc1cccs1,-8,107,78,87
CCn1c(C)ccc(-c2noc(CCC(=O)Nc3nnc(C(C)C)s3)n2)c1=O,-6,107,x,x
CCOc1ccccc1C(=O)N[C@H](C(=O)Nc1c(N)nc(N)n(C)c1=O)C(C)C,-26,x,90,97
Cc1ccc(Nc2nnc(-c3cc4c(ccc5ccccc54)oc3=O)s2)cc1,-4,126,109,101
Cc1onc(-c2ccccc2)c1C(=O)N1CCCN2C(=O)c3ccccc3C21 (stereo unspecified),6,105,112,97
CCc1nc2ccccc2nc1N1CCN(C(=O)C(C)(C)C)CC1,-8,99,98,80
CC(=O)N1CC2(C)CN(C(C)=O)CC(C)(C1)C2,-16,105,x,x
O=C(Nc1ccccc1)N1CC=C(c2c[nH]c3ccccc23)CC1,2&3,132,x,x
Cc1cc(C)cc(-n2c(SCC(=O)N3CCOCC3)nc3c([nH]c4ccccc43)c2=O)c1,x,111,108,97
Cc1nn(C(C)C(=O)NCc2ccco2)c(=O)c2nn(-c3ccccc3)c(C)c12 (stereo unspecified),x,97,83,87
CC(=O)Nc1ccc(S(=O)(=O)n2cnc3cc(C)c(C)cc32)cc1,-16,100,111,95
CNC(=O)c1c(NC(=O)Cc2coc3ccc(OC)cc23)sc2c1CCCC2,-14,99,86,89
O=C(c1ccc(N2CCCCC2)nn1)N1CCc2ccccc21,-9,100,x,x
N#Cc1ccccc1NCC(=O)N1CCN(S(=O)(=O)c2ccccc2)CC1,13,x,101,96
C/C(O)=C(\C#N)c1nc2ccccc2[nH]1,x,103,126,94
CCCc1nnc(NC(=O)C(CC)Sc2nnc3c4ccccc4n(C)c3n2)s1 (stereo unspecified),-33,103,80,81
N#CCc1c(C#N)c(N)nc(N2CCN(S(=O)(=O)c3ccccc3)CC2)c1C#N,22,x,109,101
O=C(NCc1ccccc1)c1ccc(CNS(=O)(=O)c2ccc(Br)cc2)cc1,-13,98,107,89
CC(C)c1ccc(NC(=O)/C=C/c2ccco2)cc1,-46,105,88,75
COc1ccc(C2SC(C)C(=O)N2CCCn2ccnc2)cc1OC (stereo unspecified),20,x,106,99
CNC(=S)N(Cc1ccco1)C1CC(=O)N(c2ccccc2)C1=O (stereo unspecified),-1,99,76,111
CCOC(=O)c1cnc2c(c(C3CC3)nn2C)c1N1CCCCC1,-32,106,88,87
NNC(=O)CCCNc1ccc(Cl)cc1,-1,x,91,86
CCOC(=O)CN1c2ccccc2NC1C(C#N)c1ccc(OC)cc1 (stereo unspecified),-12,x,102,86
O=C(Nc1nnc(N2CCCC2)s1)Nc1cc(F)ccc1F,-19,102,112,97
O=C(COc1ncnc2ccccc12)NC(=O)NC1CCCCC1,4,x,104,112
O=C(Nc1c(-c2cccs2)nc2ccccn12)c1cccc(C(F)(F)F)c1,x,104,94,93
COc1ccccc1N/C=C/C(=O)c1ccccc1,-58,102,51,56
COc1cccc(CNC(=O)c2ccc3c(c2)N(Cc2ccc(C(F)(F)F)cc2)C(=O)c2ccccc2S3)c1OC,-5,105,102,96
COC(=O)c1c(N2C(=O)CCC2=O)sc2c1CCCC2,x,101,116,89
O=c1[nH]c2ccc(S(=O)(=O)N3CCCC3)cc2[nH]c1=O,-6,101,103,87
Cc1cccc(NC(=O)c2cccc(C)c2)c1,14,110,102,103

# Six successive entries already listed:
canonical_smiles,HCMV NEC inh,GIV Gai3 FP,Sa growth inh,Sa growth inh second temp
COc1cccc(-c2ccc3c(N)c(C(=O)Nc4ccc(C)c(F)c4)sc3n2)c1,-1,116,103,105
CC(C)c1ccc(NC(=O)Cn2cc(S(=O)(=O)Cc3cccc(Cl)c3)c3ccccc32)cc1,x,100,98,92
CCN(CC)C(=O)c1ccc2oc(CN3CCN(S(=O)(=O)c4ccc(C)c(Cl)c4)CC3)nc2c1,-1,109,x,x
COc1ccc(-n2nc(C(=O)N3CCCCC3C)c3c4ccccc4n(C)c3c2=O)cc1 (stereo unspecified),-3,95,110,93
CS(=O)(=O)N1CCCC(C(=O)N2CCc3ccccc3C2)C1 (stereo unspecified),-26,99,90,79
O=C(CCCn1c(=O)[nH]c2ccc(Br)cc2c1=O)N1CCN(c2cccc(Cl)c2)CC1,11,111,94,71

# New compounds follow:
canonical_smiles,HCMV NEC inh,GIV Gai3 FP,Sa growth inh,Sa growth inh second temp
COC(=O)C(NC(=O)CCc1c(C)nc2c(-c3ccccc3)c(C)nn2c1C)C(C)C (stereo unspecified),-16,110,83,92
NC1=NC(=O)CC(C(=O)O)S1 (stereo unspecified),-7,100,104,81
Cc1c2cnn(-c3ccccc3)c(=O)c2c(C)n1CCCC(=O)NCc1ccccn1,-42,106,96,82
COc1ccccc1C(=O)Nc1ccc2c(c1)nc(CN1CCCCC1)n2C,-12,108,103,95
O=C(/C=C/c1ccc(Cl)cc1Cl)Nc1cccc2cnccc12,-25,x,126,84
Cc1cc2[nH]c(=O)[nH]c2cc1NC(=O)c1ccc(F)cc1,-16,102,x,x
COC(=O)c1scc(S(C)(=O)=O)c1N=CN(C)C,-38,101,99,88
CC(=O)Nc1c(C)nn(-c2ccccc2)c1N1CCC(C(=O)NCc2ccccc2Cl)CC1,x,101,76,90
CC1(C)CC(NCc2ccco2)=CC(=C(C#N)C#N)C1,-38,x,105,89
CCN(CC)S(=O)(=O)c1nnc(NC(=O)c2ccc(C)cc2)s1,-8,110,150,48
CCOC(=O)c1c(N)n(-c2ccc(Cl)c(Cl)c2)c2nc3ccccc3nc12,-17,105,98,79
Cc1ccc(C)c(N2CCN(C(=O)c3cnc4c(-c5ccccc5)c(C)nn4c3C)CC2)c1,x,109,99,85

# Next part; it opens with the 2 that closed the last part.
canonical_smiles,HCMV NEC inh,GIV Gai3 FP,Sa growth inh,Sa growth inh second temp
CCOC(=O)c1c(N)n(-c2ccc(Cl)c(Cl)c2)c2nc3ccccc3nc12,-17,105,98,79
Cc1ccc(C)c(N2CCN(C(=O)c3cnc4c(-c5ccccc5)c(C)nn4c3C)CC2)c1,x,109,99,85
Cc1ccc(C)c(NC(=O)c2cc(S(=O)(=O)NCCc3ccccc3)ccc2F)c1,x,99,114,79
O=C1/C(=C/c2c(NCC3CCCO3)nc3ccccn3c2=O)SC(=S)N1C1CCCCC1 (stereo unspecified),x,315,104,84
O=C(c1csc(S(=O)(=O)N2CCCCC2)c1)N1CCOCC1,-31,107,x,x
CC(C)(C)/C(O)=C/c1nc2cc(Cl)ccc2oc1=O,5,106,96,92
Cc1ccc(Sc2c(-c3ccccc3)nc3ccccn23)cc1,-18,102,x,x
CCSc1nc2sc3c(c2c(=O)n1CC1CCCO1)CCC3 (stereo unspecified),-29,x,80,89
COc1ccc(Cl)cc1NC(=O)CSC1=Nc2ccccc2C2=NC(CC(=O)NCc3cccs3)C(=O)N12 (stereo unspecified),-12,103,102,76
C=CCN(CC=C)C(=O)C1CCN(S(=O)(=O)c2ccc(-n3cnnn3)cc2)CC1,-12,105,118,103
CSc1ncc(Cl)c(C(=O)Nc2c(C(=O)Nc3cccc(C)c3)oc3ccccc23)n1,-4,102,115,86
CC(=O)Oc1ccc(C(O)(C(F)(F)F)C(F)(F)F)cc1,-14,x,104,88
O=C(CSc1c2c(nc3ccccc13)CCC2)N1CCCC1,x,107,75,89
Cc1nn(-c2ccccc2)nc1CNC(=O)C1CCC1,0,94,95,78
CCOc1ccc(-n2c(=O)c3c(C)c(C)sc3n(Cc3c(F)cccc3Cl)c2=O)cc1,-6,104,86,83
CCC(C)NC(=O)Cn1ncc2c(=O)oc3ccc(C)cc3c21 (stereo unspecified),-21,106,97,89
COC(=O)Cc1nc(-c2ccc(-c3ccon3)s2)sc1C,-23,105,98,59
Cc1ccccc1NC(=O)C1C2c3ccccc3OC1(C)N=C1SCC(=O)N12 (stereo unspecified),-8,x,107,86
Cc1ccc(CCNC(=O)c2sc3ncccc3c2-n2c(C)ccc2C)cc1,x,102,95,89
O=C1C=C(SCc2c(F)cccc2Cl)CC(c2ccccc2)C1 (stereo unspecified),-24,106,103,84
CN1CCC(N(C)Cc2cc(C(C)(C)C)c(O)c(C(C)(C)C)c2)CC1,12,x,104,85
CCOc1c(C)cnc2c1c(=O)n(CC(=O)N1CCCc3ccccc31)c(=O)n2C,6,112,x,x
C=CCN=C(N)SCc1nc2ccccc2c(=O)[nH]1,x,108,96,98
CCCCC1=NN2C(=N)/C(=C\c3cccn3-c3ccc(C)cc3C)C(=O)N=C2S1,-14,97,92,67
COc1cc(C)c(S(=O)(=O)Nc2ccc(-c3ccc(N4CCOCC4)nn3)cc2)cc1C,-42,101,x,x
CN1C(C(=O)NC(C)(C)C)=CC(c2ccc(F)cc2)=NS1(=O)=O,x,101,80,84
c1ccc(OCC2CCNCC2)nc1,7,105,94,78
CCNC(=O)c1ccc(C)c(S(=O)(=O)N2CCCC2)c1,10,102,86,95
O=C(NCC1COc2ccccc2O1)c1ccc(S(=O)(=O)N2CCCCC2)cc1 (stereo unspecified),-4,x,101,98
Cc1ccc(C)c(NC(=O)c2nnn(Cc3ccc(F)cc3Cl)c2N)c1,2,101,116,84
O=C(CCc1nc2ccccc2c(=O)[nH]1)Nc1ccccc1C(=O)NC1CC1,-27,x,77,93
Cc1cc(NC(=O)CCC2CCCCC2)n(-c2ncnc3c2cnn3-c2ccc(F)cc2)n1,6,105,x,x
COc1ccc2nc(N3CCOCC3)[nH]c2c1,-14,x,108,93
CCOC(=O)c1cc(OC(=O)c2cccc(C)c2)n(-c2ccccc2)n1,-9,103,96,84
CC(C)(C)C(=O)CCN1C(=O)C2(OCCO2)c2ccccc21,-8,99,x,x
O=C(COc1ccc(Cl)cc1)OCC(=O)N1CCc2ccccc2C1,-26,x,96,87
